# miR-21 reporter = miR-21 reporter, rising signal | Potency, µM (series often up to 38.3 µM), inactives show at the top dose reporter change, positive = more light | HeLa miR-21 FLuc reporter, luciferase, 48 h | 340,000 tested, under 10 active; active = well fitted rising curve with a large enough effect; inconclusive = small, poorly fitted or top-dose-only effect; inactive = no such curve, though single readings can be large or run the other way;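 note: % of control where 0% means no effect; miR-21 action dims this reporter so a rising signal means less miR-21 action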
#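 HeLa cells endogenously expressing miR-21, stably carrying CMV-driven firefly luciferase with a downstream miR-21 binding site, 2000 cells/well. Titrations up to approximately 40 uM, 48 hours; luciferase luminescence read.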
# Rango dissoc inh = prevents RanGTP from dissociating the Rango-importin beta complex; O95149+P62826; 0.071% of 340,000 active; Biochemical FRET Rango-importin beta, RanGTP-induced dissociation; Potency, µM (series often up to 46.1 µM), without a hit: top-dose activity change, negative = inhibition; active means falling FRET ratio curve, often poorly fitted, with flat reads before Ran was added; inconclusive means other falling curves, or compound fluorescence or quenching; inactive means flat or rising ratio curve;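 note: potency is the fitted concentration of half-maximal effect; % of control where 0% means no effect; nearly all actives have a fitted effect of over 45% in size; -100% = wells without RanGTP and RCC1; the record marks most hits as doubtful in a second field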
#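 Quantitative HTS using a FRET biosensor: 0.1 uM Rango, 0.25 uM importin beta, 0.6 uM Ran, 2 mM GTP, 0.2 uM RCC1 final, PBS with DTT, Tween-20 and BSA. Post-read taken 45 min after Ran addition.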
# GLA inh pH 4.5 = inhibitors of human alpha-galactosidase A at pH 4.5 | P06280 | purified enzyme, 4-MU-alpha-Gal fluorescence, pH 4.5 | activity change, negative = inhibition, % at 105 µM | 230,000 tested, under 10 active | AID 1467; inconclusive = small, poorly fitted or top-dose-only inhibition, or a rising curve; inactive = flat fitted curve, though single readings scatter; no compound was filed as active;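 note: 0% = full activity with enzyme and -100% = basal without enzyme; dose as in the result columns while the protocol names 77 µM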
# Rango complex inh = inhibitors of Rango-importin beta complex formation | 0.031% of 340,000 active | Potency, µM (highest dose often 92.2 µM), for inactives: at the top dose inhibition of complex formation | AID 540263 | Rango CFP/YFP FRET sensor + importin beta, 45 min | Q14974; active = rising FRET ratio curve, often small or poorly fitted; inconclusive = mostly compound fluorescence or quenching in the first reads; inactive = flat curves in all reads;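 note: potency is the fitted concentration of half-maximal effect; 0% = DMSO wells and 100% = buffer wells lacking importin beta; nearly all actives have a fitted effect of over 15% in size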
# Target sequence (Q14974 whole entry, looked up): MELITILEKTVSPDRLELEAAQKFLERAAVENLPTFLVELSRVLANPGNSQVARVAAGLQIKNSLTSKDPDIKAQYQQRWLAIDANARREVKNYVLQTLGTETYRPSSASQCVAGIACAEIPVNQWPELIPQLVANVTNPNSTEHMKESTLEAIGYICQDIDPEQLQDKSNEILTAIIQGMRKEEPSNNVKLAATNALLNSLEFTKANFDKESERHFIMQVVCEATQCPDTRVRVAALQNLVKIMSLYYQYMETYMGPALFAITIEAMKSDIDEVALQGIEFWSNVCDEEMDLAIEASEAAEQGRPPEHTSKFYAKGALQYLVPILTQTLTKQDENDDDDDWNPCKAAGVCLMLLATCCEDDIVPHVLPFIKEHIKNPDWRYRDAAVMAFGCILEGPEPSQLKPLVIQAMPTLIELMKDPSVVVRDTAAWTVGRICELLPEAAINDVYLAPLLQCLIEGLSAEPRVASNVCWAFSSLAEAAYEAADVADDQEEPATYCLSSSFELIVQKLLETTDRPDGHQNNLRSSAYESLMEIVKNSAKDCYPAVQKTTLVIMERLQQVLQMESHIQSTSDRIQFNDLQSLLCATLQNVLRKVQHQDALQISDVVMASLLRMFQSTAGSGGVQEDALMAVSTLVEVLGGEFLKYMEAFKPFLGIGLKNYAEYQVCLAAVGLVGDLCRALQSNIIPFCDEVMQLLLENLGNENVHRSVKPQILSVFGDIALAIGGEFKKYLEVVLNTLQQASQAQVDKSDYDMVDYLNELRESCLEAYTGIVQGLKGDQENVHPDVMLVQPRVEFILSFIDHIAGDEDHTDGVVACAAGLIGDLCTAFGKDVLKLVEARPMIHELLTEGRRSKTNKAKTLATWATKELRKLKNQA
#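 FRET biosensor Rango (snurportin 1 IBB between N-terminal EYFP and C-terminal Cerulean), 50 nM in PBS/1 mM DTT/0.02% Tween-20/0.1% BSA, preincubated 5 min RT with compound; 0.125 microM importin beta added, 45 min RT, CFP/YFP FRET ratio read.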
# * = called active by the depositor; ? = inconclusive; · = no result given. Only part of the results is shown; count on the stated rates, not on these rows.
smiles	miR-21 reporter	Rango dissoc inh	GLA inh pH 4.5	Rango complex inh
COc1ccc(-c2ccc(-c3noc(-c4ccccc4F)n3)c(OC)n2)cc1	-6%	0%	8	-2.4%
O=C(CSc1nnc(Nc2ccccc2)s1)NCC1CCCO1 (stereo unspecified)	·	1%	·	-0.5%
O=C(CC12CC3CC(CC(C3)C1)C2)N/N=C\c1ccc[nH]1	6%	-7%	-7	0.2%
O=C(CSc1nnc(C2CC2)n1-c1ccccc1)NC1CCS(=O)(=O)C1 (stereo unspecified)	·	2%	·	1.1%
Cc1nn(C)c(C(=O)NNC(=S)NCc2ccco2)c1Br	1%	-14%	2	-2.6%
CC(=O)Nc1nc(C)cs1	0%	11%	4	0.5%
Cc1nn(-c2ncc(C(F)(F)F)cc2Cl)c(=O)n1-c1ccccc1F	-1%	3%	1	-1.8%
COc1ccc2c(c1)OC[C@H]1[C@H]2N2C(=O)[C@H](C)NC(=O)[C@@]2(C)[C@H]1c1ccccc1	·	6%	·	-0.4%
O=[N+]([O-])c1ccc(OCc2n[nH]c(=S)n2-c2ccccc2)cc1	-14%	-14%	·	-2.0%
COc1ccc(O)c(/C=N/c2sc(C)c(C)c2C#N)c1	-5%	-7%	8	5.5%
O=C(Nc1cc(S(=O)(=O)N2CCOCC2)ccc1N1CCOCC1)c1cccs1	·	-12%	·	-2.9%
CCn1c(SCC(=O)N2CCN(c3ccccc3F)CC2)nnc1-c1ccoc1C	16%	-1%	-9	0.3%
Cc1cccc(-c2cc3nc(C)cc(NCCCn4ccnc4)n3n2)c1	-12%	26%	1	2.8%
CCOC(=O)c1cnc(-c2ccccc2)nc1Oc1ccc(OC)cc1	0%	-11%	4	0.0%
Cc1ccc2nc(N3C(=O)C(O)=C(C(=O)c4ccc(C)o4)C3c3cccc(O)c3)sc2c1 (stereo unspecified)	-18%	?	6	?
COc1ccc(Nc2nnc(SCC(=O)NC3CCS(=O)(=O)C3)s2)cc1 (stereo unspecified)	·	7%	·	0.8%
COc1ccccc1NC(=O)CSc1nnc(CCNC(=O)c2ccc(C)cc2)n1C	-24%	-19%	-2	?
O=C(Cc1cccc(C(F)(F)F)c1)NCc1cccnc1	-3%	11%	·	3.3%
O=C(O)c1cccc(C(=O)O)n1	-5%	·	-8	·
C=C(C)CNC(=S)N/N=C1\CCCCc2ccccc21	1%	0%	-7	-0.2%

# Quoted at random: 3 compounds from above.
smiles	miR-21 reporter	Rango dissoc inh	GLA inh pH 4.5	Rango complex inh
Cc1cccc(-c2cc3nc(C)cc(NCCCn4ccnc4)n3n2)c1	-12%	26%	1	2.8%
O=C(Cc1cccc(C(F)(F)F)c1)NCc1cccnc1	-3%	11%	·	3.3%
CCOC(=O)c1cnc(-c2ccccc2)nc1Oc1ccc(OC)cc1	0%	-11%	4	0.0%

# New compounds follow
smiles	miR-21 reporter	Rango dissoc inh	GLA inh pH 4.5	Rango complex inh
CC(C)C(=O)N1C2CCC1CC(O)(c1ccc(F)cc1)C2 (stereo unspecified)	-1%	20%	4	-4.7%
O=C(COC(=O)c1ccc(S(=O)(=O)N2CCOCC2)cc1)NCc1ccccc1	·	3%	·	0.4%
Nc1nc(=S)[nH]c2c1C1(CCCCC1)Cc1ccccc1-2	-7%	12%	0	1.2%
CCN(CC)C(=O)c1sc(NC(=O)c2c(OC)cccc2OC)c(C#N)c1C	-2%	?	·	?
CCc1nnc(NC(=O)CSc2nnc(-c3ccco3)n2CC)s1	-2%	-11%	3	-3.1%
CC(C)Cc1nnc(NC(=O)CSc2nc(N)cc(=O)[nH]2)s1	-1%	12%	2	-1.5%
CC(=O)c1ccc(NC(=O)c2sc3nc(N4CCOCC4)c4c(c3c2N)CCCC4)cc1	-39%	0%	·	1.8%
COc1cccc(-n2cnc3scc(-c4cccs4)c3c2=O)c1	11%	-9%	-13	-1.7%
O=C(CSc1nnc(-c2ccco2)n1Cc1ccco1)N1CCOCC1	-1%	19%	6	-1.5%
COc1cccc(CNC(=O)c2cccnc2Sc2ccc(C)cc2C)c1	-9%	19%	·	5.4%
CCCS(=O)(=O)N1CCC(C(=O)NC2CCCCC2C)CC1 (stereo unspecified)	-6%	15%	1	1.5%
COc1cc(C(=O)CCN2CCC(c3ccccc3)C2)cc(OC)c1OC (stereo unspecified)	6%	-2%	2	1.0%
O=[N+]([O-])c1ccc(S(=O)Cc2ccccc2)c([N+](=O)[O-])c1 (stereo unspecified)	·	?	·	-5.0%
CC1(C)Cc2nc(NCCN3CCOCC3)c(C#N)cc2CO1	2%	8%	-5	-1.6%
CCc1noc(C)c1C(=O)N1CCC(CCC(=O)Nc2cccc(C)c2)CC1	14%	34%	·	1.3%
CCc1ccnc(NS(=O)(=O)c2ccc3c(c2)OCCO3)c1	-4%	10%	-13	-1.6%
O=C(Nc1ccc2[nH]c(=S)sc2c1)Nc1ccccc1F	-2%	-8%	1	0.0%
CN(C)S(=O)(=O)c1cc(NC(=O)CSc2cccc[n+]2[O-])ccc1Cl	·	-7%	·	-0.5%
CNS(=O)(=O)c1ccc2nc(NC(=O)/C=C/c3ccco3)sc2c1	-5%	?	-4	?
COc1ccc(NC(=O)CCCn2c(=O)c3sccc3n(Cc3ccc(C)cc3)c2=O)cc1	-10%	-2%	-1	13%
O=C(C(Cl)Cl)N1CCN(Cc2ccccc2)CC1	2%	1%	-4	2.7%
CN1CCN(CCC(=O)Nc2cccc(F)c2)CC1	-15%	-12%	6	-0.5%
CCCC(C)C(=O)Nc1ccc(F)c(Cl)c1 (stereo unspecified)	-1%	-1%	-4	-1.3%
CCOC(=O)C1=C(C)NC(=O)NC1c1ccsc1 (stereo unspecified)	7%	4%	-6	4.0%
CCCCCC(=O)NC(=S)NNC(=O)c1ccc([N+](=O)[O-])cc1	-5%	-16%	6	-0.2%
CCCCC(=O)NC(c1ccc(OC)c(OC)c1)c1ccc2cccnc2c1O (stereo unspecified)	·	1%	·	1.2%
COc1cccc(C(=O)NNC(=O)CCN2CCN(c3ccccc3)CC2)c1	·	16%	·	-5.0%
CCNc1nc(Oc2c(Cl)cccc2Cl)cc(C(F)(F)F)n1	5%	-7%	-3	-3.8%
COc1ccc(S(=O)(=O)N(C)CC(=O)N2CCC(C(N)=O)CC2)cc1Cl	0%	5%	2	-4.5%
Cc1ccc(S(=O)(=O)N2CCC(C(=O)N[C@H](C(=O)NC3CCS(=O)(=O)C3)C(C)C)CC2)cc1 (stereo partly specified)	-6%	-4%	-3	-0.3%
CCN1CCN(c2ccc(N=Cc3ccccc3O)cc2)CC1	-2%	-24%	8	?
CCN(C(=O)/C=C/c1ccc(OC)cc1)C1CCCCC1	-34%	15%	·	-0.2%
Cc1sc2nc3n(c(=O)c2c1C)CCCS3	-20%	1%	-11	-2.5%
Cc1ccc(CC(=O)OC(C)C(=O)NC2CCCCC2C)cc1C (stereo unspecified)	·	11%	·	0.0%
CCN(CC)S(=O)(=O)c1ccc(Cl)c(C(=O)OCC(=O)c2c(N)n(C)c(=O)n(C)c2=O)c1	7%	1%	2	?
Cn1ncc(Cl)c(Oc2ccccc2)c1=O	-11%	7%	4	2.6%
O=C(CCN1CCc2ccccc2C1)Nc1ccc2c(c1)OCO2	-9%	0%	-6	0.4%
Cc1ccc(C(=O)Nc2ccc(N3CCN(C)CC3)cc2)cc1	-53%	5%	·	-1.2%
CC(C)(CO)NCC(=O)Nc1cc(C(F)(F)F)cc(NC(=O)CNC(C)(C)CO)c1Cl	0%	5%	0	-1.9%
C/C(=N\NC(=O)c1ccccc1C)c1ccc(NC(=O)c2cccs2)cc1	-29%	1%	-2	-1.6%
CS(=O)(=O)N1CCN(C(=O)C2c3ccccc3Oc3ccccc32)CC1	-6%	22%	-5	-1.3%
CCOc1ccccc1NC(=O)c1cccc2ccccc12	3%	-1%	·	-0.6%
COc1ccc(OC)c(NC(=O)CS(=O)(=O)Cc2ccccc2)c1	1%	-4%	·	-1.0%
COCCN1C2=C(C(=O)CC(C)(C)C2)C(c2ccc(O)c(OC)c2)C2=C1CC(C)(C)CC2=O	1%	-15%	·	?
O=C(CN1C(=O)NC(CCc2ccccc2)C1=O)Nc1cccc(Br)c1 (stereo unspecified)	·	12%	·	-1.7%
CC1CN(C2=CC(=O)CCC2)CC(C)O1 (stereo unspecified)	0%	-7%	-14	-0.9%
Cc1ccc(S(=O)(=O)Cn2nnnc2C(c2ccccc2)N2CCN(c3ncccn3)CC2)cc1 (stereo unspecified)	-9%	13%	-12	-1.6%
CCCC(=O)NC(Nc1ccccc1OC)C(Cl)(Cl)Cl (stereo unspecified)	2%	-6%	9	-2.9%
Cc1ccc(NC(=O)CN2C(=O)S/C(=C/c3ccc(-c4cccc(C(=O)O)c4)o3)C2=O)cc1	-6%	?	4	?
Cc1ccc2nc(-c3ccc4c(c3)NC(=O)CO4)cn2c1	-43%	-1%	-3	-1.8%

# Additional entries.
smiles	miR-21 reporter	Rango dissoc inh	GLA inh pH 4.5	Rango complex inh
CCOc1cccc(CNc2ccc(O)cc2)c1OCc1ccccc1Cl	?	-10%	-3	-5.3%
CCOC(=O)c1ccc(NC(=S)N2CCN(S(C)(=O)=O)CC2)cc1	-6%	8%	-1	0.9%
Cc1ccc(NC(=O)CN2CCN(S(=O)(=O)c3ccc(F)cc3)CC2)cc1C	·	1%	·	0.8%
COc1ccc(CCN(C)C(=O)CCc2nnc(-c3ccccc3)o2)cc1OC	-63%	0%	6	6.2%
CC1=C(C(=O)OC(C)C)C(c2ccccn2)n2ncnc2N1 (stereo unspecified)	-1%	-7%	-1	-2.6%
CCOC(=O)CNC(=O)CSc1ccc2nnc(-c3cccnc3)n2n1	0%	0%	-2	-2.1%
CCOC(=O)c1cc(-c2ccccc2)sc1NC(=S)Nc1cccc(C)n1	-8%	9%	0	3.0%
Nc1ccc(Cl)c[n+]1Cc1cccc2cccnc12	8%	-13%	-5	-0.2%
Cc1ccc(C(=O)NC2CCC(C)CC2)o1 (stereo unspecified)	·	-8%	·	9.1%
CCOC(=O)c1cnc2c(CC)cccc2c1NCCCN1CCOCC1	-1%	?	·	?
Cc1ccc(N2C(=O)CSC2c2ccc3c(c2)OCO3)cc1 (stereo unspecified)	-4%	5%	3	-1.9%
O=C(CNC(=O)c1ccco1)OCC(=O)c1cccc2ccccc12	-5%	4%	6	-3.5%
C=CCOC(=O)C1=C[C@@H](c2coc3ccccc3c2=O)C[C@@H](OCCCCO)O1	·	-21%	·	?
CCCN1CCN(C(=O)c2c(Cl)cnn2C)CC1	-4%	-14%	·	-0.7%
Cc1ccccc1C(=O)N1CCC(C(=O)NN2C(=O)NC3(CCCCC3)C2=O)CC1	·	?	·	?
CCC1Nc2ncnc(N3CCCCC3)c2N(Cc2ccc(C)cc2)C1=O (stereo unspecified)	·	4%	·	2.0%
Cc1cc(C)cc(NC(=O)c2ccc(N3C(=O)C4CCCCC4C3=O)cc2)c1 (stereo unspecified)	-27%	-5%	·	6.5%
COC(=O)c1ccc(NC(=S)NNC(=O)c2ccccc2)cc1	-38%	-10%	-5	-1.7%
O=[N+]([O-])c1ccccc1/C=C/C=N/Nc1nc(N2CCCCC2)nc(N2CCCCC2)n1	-2%	-3%	0	-1.9%
Cc1oc2cc(OC(=O)c3ccco3)ccc2c(=O)c1-c1nc2ccccc2n1C	-6%	0%	-1	-3.2%
O=C(CC(c1ccco1)C1CCCCC1=O)c1ccccc1 (stereo unspecified)	-7%	21%	-4	-1.4%
O=C(NCCO)C(=O)c1c(-c2ccccc2)cc2ccccn12	0%	-1%	2	0.3%
CCN(CC)S(=O)(=O)c1cnccc1N1CCN(c2cccc(Cl)c2)CC1	0%	13%	-23	-0.1%

# Compound activity from PubChem.
